Cruzain inh noDet: blocks cruzain activity in detergent-free assay; P25779; purified cruzain, Z-FR-AMC fluorescence, no detergent; Potency, µM, for the others: max response, negative = inhibition, hits mostly inhibitors; hit rate 2.3% among 200,000;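 also: plate controls were enzyme without inhibitor for no effect and buffer without enzyme for full effect; nearly all actives have a fitted effect of over 40% in size; top concentration of the series not given in the record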
Target sequence (P25779 123-467 limits assumed): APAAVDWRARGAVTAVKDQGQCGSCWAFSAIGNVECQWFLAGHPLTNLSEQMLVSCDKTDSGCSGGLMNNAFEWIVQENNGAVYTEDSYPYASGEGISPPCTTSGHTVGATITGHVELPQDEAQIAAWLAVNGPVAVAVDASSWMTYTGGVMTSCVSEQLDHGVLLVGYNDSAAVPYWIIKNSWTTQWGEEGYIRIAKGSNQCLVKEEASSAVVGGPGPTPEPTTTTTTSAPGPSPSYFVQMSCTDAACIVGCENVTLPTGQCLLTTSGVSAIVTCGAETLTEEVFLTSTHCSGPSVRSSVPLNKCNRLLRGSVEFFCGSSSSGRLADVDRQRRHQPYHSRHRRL
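Detergent-free condition (0.00005% Triton X-100) in acetate buffer pH 5.5 with DTT. 1.5 nM enzyme and compound were pre-mixed 15 min, then 2 uM Z-FR-AMC substrate added; reaction progress from fluorescence change between first and third reads (60 s).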
LASV entry inh: Lassa virus entry inhibition. hit rate 1.2% among 300,000. Potency, µM (series often up to 37.9 µM), inactives show top-dose activity change, negative = inhibition, hits mostly inhibitors. Lassa virus pseudotype entry inhibition, cell reporter; control for the full effect not named in the record; active means well fitted inhibition curve with a large enough effect; inconclusive means small, poorly fitted or top-dose-only effect, or effect the other way; inactive means flat fitted curve, though single readings scatter; tested in HEK293 cells; also: % is scaled to controls: 0 for no effect and ±100 for the full control effect; nearly all actives have a fitted effect of over 50% in size; luciferase read-out
RE007 growth inh: less growth of the S. pombe RE007 Vpr strain; S. pombe RE007 Vpr strain, BacTiter-Glo ATP luminescence, 24 h; control for the full effect not named in the record; Potency, µM (series often up to 92.2 µM), for inactives: at the highest dose activity change, negative = less growth; hit rate 0.21% among 360,000; AID 651644; active = well fitted falling curve with a large enough effect; inconclusive = small, poorly fitted or top-dose-only effect; inactive = no such curve, though single readings can be large or run the other way;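 also: % is scaled to controls: 0 for no effect and ±100 for the full control effect; nearly all actives have a fitted effect of over 50% in size; the assay follows cell death caused by Vpr and the record does not say whether a fall means rescue or toxicity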
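Fission yeast RE007 carrying one integrated HIV-1 vpr copy, seeded at OD 0.01 in PMG+AL medium with 23 nL pinned compound. Grown 24 h at 30 degrees; viability read by BacTiter-Glo luminescence after 5 min.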
Cruzain inh Det: blocks cruzain activity in presence of Triton detergent; purified cruzain, Z-FR-AMC fluorescence, 0.01% Triton; hit rate 0.43% among 200,000; P25779; Potency, µM, for inactives: max response, negative = inhibition, actives largely listed as inhibitors;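 also: plate controls were neutral wells for no effect and buffer without enzyme for full effect; nearly all actives have a fitted effect of over 40% in size; top concentration of the series not given in the record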
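Cysteine protease activity tested under reducing, mildly acidic conditions (100 mM sodium acetate pH 5.5, 5 mM DTT) plus 0.01% Triton X-100. Cruzain 1.5 nM; substrate Z-FR-AMC 2 uM; 15 min compound preincubation at room temperature.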
Marburg entry inh: blocks Marburg virus binding to or entry into cells. Marburg virus pseudotyped entry inhibition, cell reporter; control for the full effect not named in the record; about a third of the inactives were read at about 46 µM. Potency, µM (titrated, usually from 37.8 µM), inactives show top-dose activity change, negative = inhibition, usual class: inhibitors. hit rate 1.8% among 300,000; active = well fitted inhibition curve with a large enough effect; inconclusive = small, poorly fitted or top-dose-only effect, or effect the other way; inactive = flat fitted curve, though single readings scatter; tested in HEK293 cells; about a fifth of its hits are not listed in these tables; also: % is scaled to controls: 0 for no effect and ±100 for the full control effect; luciferase read-out
SARS PLpro yeast: SARS-CoV PLP inhibition in yeast. S. cerevisiae expressing SARS-CoV PLpro, growth rescue; control for the full effect not named in the record. hit rate 0.19% among 330,000. Potency, µM (highest dose often 32.9 µM), for inactives: at the top dose activity, positive = growth rescue. AID 485353; active means well fitted rising curve with a large enough effect; inconclusive means small, poorly fitted or top-dose-only effect; inactive means no such curve, though single readings can be large or run the other way; also: 0% is about no effect; nearly all actives have a fitted effect of over 55% in size; growth read by luminescence after 48 h
NS1 inh: inhibitors of influenza NS1 protein function; AID 2326; S. cerevisiae slowed by influenza A NS1, growth recovery by OD600; Potency, µM (series often up to 46.1 µM), for the others: at the top dose activity, positive = more growth; hit rate 0.4% among 270,000; active means well fitted rising curve with a large enough effect; inconclusive means small, poorly fitted or top-dose-only effect; inactive means no such curve, though single readings can be large or run the other way; also: nearly all actives have a fitted effect of over 50% in size
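Recovery from NS1-induced slow growth read by OD600 in budding yeast switched to galactose assay medium (pH 6.0, -URA) at 1:100 dilution. Compound 23 nl per well; the matching strain lacking NS1 serves as control.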
StopGo reporter: FMDV 2A StopGo reporter, luciferase signal | human cells with a luciferase reporter of 2A StopGo recoding; control for the full effect not named in the record | Potency, µM (doses to about 57.9 µM), without a hit: top-dose signal change, negative = less light | hit rate 1.2% among 410,000 | AID 1159524; active = well fitted falling curve with a large enough effect; inconclusive = small, poorly fitted or top-dose-only effect; inactive = no such curve, though single readings can be large or run the other way; tested in HEK293T cells; also: % is scaled to controls: 0 for no effect and ±100 for the full control effect; nearly all actives have a fitted effect of over 45% in size; luciferase light after 4 h
* marks the source's active call; other numbers are inactive results; u = inconclusive; x = not tested or not shown; & = joins results of further samples; [ ] = another dose, or the depositor's remark. Unless noted, calls follow the shape of the dose curve; as a rule, active = well fitted curve in the direction sought with a large enough effect; inconclusive = small, poorly fitted or top-dose-only effect, or another doubt; inactive = no such curve, though single readings can be large; an effect the other way counts as inactive or inconclusive. Potency is read from the fitted curve at half-maximal effect.

structure	Cruzain inh noDet	LASV entry inh	RE007 growth inh	Cruzain inh Det	Marburg entry inh	SARS PLpro yeast	NS1 inh	StopGo reporter
Cn1c(SCC(=O)c2ccccc2)nnc1-c1ccc(O)cc1	2%	12%	3%	2.2%	11%	-4%	13%	53%[activator]
CC(=O)c1c(C)n(CC(=O)NCc2ccc3c(c2)OCO3)c2ccccc12	16%	-6%	7%	-1.5%	-14%	4%	3%	x
Cc1cccc(N2CCN(C(=O)CCS(=O)(=O)c3ccc4c(c3)NC(=O)C(C)S4)CC2)c1C (stereo not drawn)	x	x	-1%	x	x	-2%	12%	u
Cc1ccc(Oc2c(C(F)(F)F)oc3cc(OCC(=O)NC4CCCCC4)ccc3c2=O)cc1	-1%	-2%[46.1 µM]	x	-1.0%	-3%[46.1 µM]	x	x	-19%
O=C(/C=C/c1ccc2c(c1)OCO2)N1CCN(c2ccc(Cl)cc2)CC1	-21%	-8%	-1%	-2.3%	u	13%	4%	u
CS(=O)(=O)c1sc(C(=O)NC(=O)Nc2cccc(C(F)(F)F)c2)c2c1C=CCC2	x	x	-23%	x	x	-6%	-5%	7%
O=c1c2cnn(-c3ccccc3Cl)c2ncn1Cc1cccnc1	-2%	0%	20%	5.0%	16%	-4%	-7%	-19%
CCOc1cc2sc(N3CCC(C(=O)Nc4ccc(C)cc4)CC3)nc2cc1Br	5%	x	x	0.3%	u	x	x	20%
Cc1ccc(-n2ncc3c(Nc4ccc(Oc5ccccc5)cc4)ncnc32)c(C)c1	-18%	u	x	-1.5%	x	x	x	-3%
COc1ccc2nc(NC(=O)NC3CCCCC3)sc2c1	x	x	-15%	x	x	-4%	-10%	62%[activator]
Cc1ccc(C(=O)Nc2cccnc2)cc1NC(=O)c1ccco1	-1%	7%	13%	3.7%	0%	5%	-13%	11%
COC(=O)/C(=C\Nc1ccc(Oc2ccc(F)cc2F)nc1)NC(=O)c1ccccc1	x	u	2%	x	u	1%	3%	-12%
CCOC1=NC(C(=O)O)c2ccccc2/C(=C(/C)Cl)N1 (stereo not drawn)	5%	-12%	0%	4.3%	3%	-5%	-5%	-28%
C=CCN1C(=O)C2C(C(=O)NC)C3C=CC2(O3)C1C(=O)NCc1ccc(OC)cc1 (stereo not drawn)	8%	u	1%	-0.7%	0%&5%	2%	4%	5%
Cc1cccc(C)c1Nc1nnc(SCC(=O)c2ccc3c(c2)NC(=O)CO3)s1	u	14%	7%	-12%	-16%	0%	u	-10%
Cc1ccc(CNC(=O)COc2ccc(S(=O)(=O)NC(C)C)cc2)cc1	8%	-27%	-10%	6.2%	-1%	-1%	3%	0%
CC1(C)C(=O)CC[C@@]2(C)C1=CCC1C2CC[C@]2(C)C(=O)CCC12 (stereo partly drawn)	x	22%[46.1 µM]	u	x	-17%[46.1 µM]	1%	x	-29%
O=C(CCc1nc2ccccc2c(=O)[nH]1)NCc1cccc(Cl)c1	-1%	u	2%	-0.2%	-18%	1%	5%	-11%
O=C(CC1(O)CCCCC1)OC1CCCC1	-1%	-8%	9%	-3.3%	9%	x	-3%	-10%
CCCCN1C(=O)NC2NC(=O)NC21 (stereo not drawn)	-2%	u	5%	1.2%	6%	17%	0%	7%
CN(C)c1ncc([N+](=O)[O-])cc1C(F)(F)F	x	3%	1%	x	-16%	0%	-2%	-5%
Cc1ccc(-n2cnc3scc(-c4cccs4)c3c2=O)cc1	u	-1%	-22%	-10%	-14%	-6%	-4%	-18%
O=C(N/N=C/c1ccc2c(c1)OCO2)C1CC1	x	x	-8%	x	x	-2%	-16%	38%[activator]
O=C(CNS(=O)(=O)c1ccccc1)NCc1ccccn1	-20%	-5%	-9%	0.7%	-11%	3%	-8%	10%
O=C(CC1Sc2ccccc2NC1=O)Nc1cccc(-c2nnc3n2CCCCC3)c1 (stereo not drawn)	-8%	25%	26%	-9.1%	5%&5%	3%	-4%	34%[activator]
CCc1nc2nc(C)c(NS(=O)(=O)c3ccc(Cl)s3)c(=O)n2[nH]1	x	8%	2%	x	22%[46.1 µM]	-1%	-17%	-7%
CC1(C)CC(O)(CNCc2ccc3c(c2)OCO3)CCO1 (stereo not drawn)	5%	-1%	0%	-1.2%	-2%	-4%	-12%	9%
CCCCNC(=O)c1c(CSc2ccccc2)noc1C(=O)NCc1ccccc1	x	x	0%	x	x	1%	1%	-7%
COc1ccc(C(=O)NC(=S)N(C)Cc2ccccc2)cc1Br	x	-7%[46.1 µM]	-1%	x	u	0%	3%	-14%
CNC(=O)Oc1ccc2c(c1)C(=O)c1ccccc1CO2	-6%	1%	17%	-2.4%	-12%[46.1 µM]	-22%	-93%	7%

Next section, overlapping the part above by 2 compounds.
structure	Cruzain inh noDet	LASV entry inh	RE007 growth inh	Cruzain inh Det	Marburg entry inh	SARS PLpro yeast	NS1 inh	StopGo reporter
COc1ccc(C(=O)NC(=S)N(C)Cc2ccccc2)cc1Br	x	-7%[46.1 µM]	-1%	x	u	0%	3%	-14%
CNC(=O)Oc1ccc2c(c1)C(=O)c1ccccc1CO2	-6%	1%	17%	-2.4%	-12%[46.1 µM]	-22%	-93%	7%
COc1ccccc1NS(=O)(=O)c1cc(NC(=O)c2[nH]c(C)c(C(C)=O)c2C)ccc1N1CCOCC1	x	x	-5%	x	x	-2%	-7%	16%
CNC(=O)/C(C#N)=C/c1c(N2CC(C)OC(C)C2)nc2ccccn2c1=O (stereo not drawn)	6%	-2%	-2%	-18%	5%	18%	-8%	-24%
O=C(Nc1ccccc1)N1CCOCC1	-2%	16%	9%	6.3%	-11%	0%	1%	14%
Cc1cc(O)ccc1-c1cnc2ccccc2n1	-11%	16%	-17%	-4.2%	24%&24%	-16%	-54%	50%[activator]
C[C@H](NC(=O)OC(C)(C)C)c1nnc(SCc2ccc(Cl)cc2Cl)o1	19%	u	x	-8.2%	u	x	x	-8%
CSc1ncc(Cl)c(C(=O)Nc2nnc(SC/C=C/c3ccccc3)s2)n1	u	26%	3%	-1.6%	1%	-5%	u	10%
CC(=O)N/N=C/c1cc2c(cc1[N+](=O)[O-])OCO2	x	-1%	-13%	x	u	-2%	6%	-8%
CC1=NNC(=O)C1Cc1ccc(F)cc1 (stereo not drawn)	x	u	-4%	x	11%	0%	4%	1%
CCCc1nnc(NC(=O)CCC(=O)N2CCC3(CC2)OCCO3)s1	x	8%	-18%	x	-9%	1%	-2%	-1%
Cc1ccc(NC2CC(=O)N(c3ccc(N4CCCCC4)cc3)C2=O)cc1 (stereo not drawn)	7.9µM*	9%	-17%	-2.4%	-6%	0%	7%	x

Record cards, as listed above. Order of values: Cruzain inh noDet | LASV entry inh | RE007 growth inh | Cruzain inh Det | Marburg entry inh | SARS PLpro yeast | NS1 inh | StopGo reporter
Shown for CC(=O)N/N=C/c1cc2c(cc1[N+](=O)[O-])OCO2 : x | -1% | -13% | x | u | -2% | 6% | -8%
Shown for Cc1cc(O)ccc1-c1cnc2ccccc2n1 : -11% | 16% | -17% | -4.2% | 24%&24% | -16% | -54% | 50%[activator]
Shown for O=C(Nc1ccccc1)N1CCOCC1 : -2% | 16% | 9% | 6.3% | -11% | 0% | 1% | 14%

Additional results follow.
structure	Cruzain inh noDet	LASV entry inh	RE007 growth inh	Cruzain inh Det	Marburg entry inh	SARS PLpro yeast	NS1 inh	StopGo reporter
CCOc1ccc(C2C(C#N)=C(N)N(N(C)C)C3=C2C(=O)CCC3)cc1 (stereo not drawn)	x	24%[46.1 µM]	10%	x	10%[46.1 µM]	0%	-1%	4%
COC(=O)NNC(=O)COc1ccc(Cl)cc1	7%	u	-2%	3.9%	-2%	2%	-1%	16%
CCOC(=O)CN(C)S(=O)(=O)c1ccc(-c2cc(C(=O)OC)sc2C(F)(F)F)cc1	x	x	20%	x	x	-1%	3%	u
O=c1cnc2cc([N+](=O)[O-])ccc2[nH]1	x	17%[46.1 µM]	16%	x	2%[46.1 µM]	-1%	0%	-3%
CCc1ccc2c(CN3CCN(S(=O)(=O)c4ccc5c(c4)OCCO5)CC3)cc(=O)oc2c1	u	-1%	-3%	-0.9%	-6%&-6%	-27%	20%	u
CC(=O)Nc1ccc(NS(=O)(=O)c2cc(Br)cc3c2N(C(=O)C2CC2)CC3)cc1	0%	-14%[46.1 µM]	x	-3.9%	-2%[46.1 µM]	x	x	36%[activator]
Cc1ccc(N2CCN(C(=O)c3cccc([N+](=O)[O-])c3)CC2)cc1Cl	x	-7%	u	x	-9%[46.1 µM]	0%	-1%	-7%
CCc1ccccc1S(=O)(=O)Cc1ccc(C(=O)N2CCN(c3ccccn3)CC2)o1	0%	x	-6%	-3.1%	2%	2%	-19%	u
O=C(CN1C(=O)c2ccccc2S1(=O)=O)NCCC1=CCCCC1	-13%	u	3%	-3.3%	-31%	6%	-12%	-1%
O=C(/C=C/c1ccccc1Cl)NNC(=O)c1cccs1	x	13%	-8%	x	22%	0%	x	25%
O=C(Nc1cccc(-n2cnnn2)c1)c1ccco1	-5%	u	1%	6.4%	-13%	-3%	-11%	-4%

Screening data: PubChem, National Center for Advancing Translational Sciences (NCATS)

Rows are unselected; about 4.5% have a hit in one of these screens.
